Mtb bLac sens – beta-lactam sensitization of Mtb H37Rv, H37Rv; AID 434955, 2010; hit rate 0.27% among 330,000; inhibition, % at 25 µM; M. tuberculosis H37Rv growth with meropenem, percent inhibition; hits of this screen are not shown here;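 active = about 74% or more and at least 40 points above the plate without the antibiotic, then above 30% in a dose series; inconclusive = first-round hits that could not be retested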;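 note: growth measured after seven days incubation then overnight dye step; 0% = bacteria only wells and 100% = bacteria with antibiotic; twin plates without the antibiotic show which effects depend on it; some results filed as inactive read as strong as hits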
Arbovirus inh – antivirals against arbovirus infection, primary screen, cell-based, full library, 10K replicate subset; inhibition, % at 10 µM; hit rate 0.37% among 200,000; AID 1251, 2008; arbovirus infection cell-based antiviral screen;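 active = inhibition from about 30%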;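 note: bluetongue infection of BSR cells; cell survival read as ATP light after 72 h; 0% = infected wells without compound and 100% = uninfected wells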
Mtb H37Rv – M. tuberculosis H37Rv growth inhibitors, H37Rv strain (AID 1626); M. tuberculosis H37Rv growth inhibition; higher % means a stronger effect; inhibition, % at 10 µM; hits with a dose series show IC50 in µM; hit rate 0.95% among 220,000;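 active = confirmed in a dose series; inconclusive = inhibition above 80% but not taken into the dose series; inactive = below 80% or under 30% at every dose of the series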;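 note: bacteria incubated seven days before Alamar blue readout; 0% = bacteria only wells and 100% = bacteria with antibiotic wells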
RecA intein inh – Mtb RecA intein splicing inhibitors, primary screen, biochemical, fluorescence, HTS; cell-free RecA intein splicing; AID 2221, 2009; hit rate 0.75% among 290,000; Protein RecA (Mycobacterium tuberculosis (strain ATCC 25618 / H37Rv)), P9WHJ3; inhibition, %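 (about 9 µM by stock and volumes)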; in the data active = inhibition above about 30%; inconclusive = no clear call, values can overlap the other calls;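 note: 0% = vehicle wells and 100% = reference inhibitor control wells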
Target sequence (P9WHJ3 whole entry, looked up): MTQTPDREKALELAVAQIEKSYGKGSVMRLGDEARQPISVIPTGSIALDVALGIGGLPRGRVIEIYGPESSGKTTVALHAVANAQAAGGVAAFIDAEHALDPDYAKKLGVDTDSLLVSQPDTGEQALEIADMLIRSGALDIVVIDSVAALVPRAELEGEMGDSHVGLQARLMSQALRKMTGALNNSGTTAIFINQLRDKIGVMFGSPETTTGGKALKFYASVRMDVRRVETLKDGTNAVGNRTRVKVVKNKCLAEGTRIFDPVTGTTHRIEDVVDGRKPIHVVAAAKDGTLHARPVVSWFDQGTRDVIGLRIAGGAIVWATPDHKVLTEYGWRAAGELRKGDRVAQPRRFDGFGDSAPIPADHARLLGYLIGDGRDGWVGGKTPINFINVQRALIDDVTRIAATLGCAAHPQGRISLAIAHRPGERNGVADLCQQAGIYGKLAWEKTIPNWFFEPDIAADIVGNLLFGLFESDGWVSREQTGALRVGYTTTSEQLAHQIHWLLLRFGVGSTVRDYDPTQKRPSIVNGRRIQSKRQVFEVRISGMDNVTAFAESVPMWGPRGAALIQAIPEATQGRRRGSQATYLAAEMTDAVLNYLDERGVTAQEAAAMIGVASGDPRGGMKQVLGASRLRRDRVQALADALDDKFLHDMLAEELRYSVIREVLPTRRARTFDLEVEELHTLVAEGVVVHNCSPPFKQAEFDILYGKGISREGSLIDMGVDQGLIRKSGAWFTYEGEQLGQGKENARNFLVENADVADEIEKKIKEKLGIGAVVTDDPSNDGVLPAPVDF
YopH inh – YopH tyrosine phosphatase inhibitors, primary screen, biochemical, fluorescence Ex485/Em525; hit rate 0.16% among 140,000; YopH tyrosine phosphatase [Yersinia enterocolitica]; inhibition, %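 (about 10 µM by stock and volumes)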;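 active = inhibition of 50% or more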;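 note: controls were vehicle for no effect and minimum signal wells for full effect; inactives centre near -20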
Arbovirus inh repeat – further read-out of Arbovirus inh, marked with its call; inhibition, %; measured here: 10K subset replicate screen; many hits read low in the repeat;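 first of two repeat runs on a subset; 0% = infected and 100% = uninfected wells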
* = called active by the depositor; ? = inconclusive; / = not tested or not shown. Not all compounds are listed; the hit share may differ from the screen's.

Start of the data: the first 7 entries, to show the layout:
SMILES	Mtb bLac sens	Arbovirus inh	Mtb H37Rv	RecA intein inh	YopH inh	others
CN(C(=O)Cn1cc(C(F)(F)F)ccc1=O)c1c(N)n(Cc2ccccc2)c(=O)[nH]c1=O	-5	/	/	-1.3	/
CC(SCc1ccccc1)C(=O)Nc1ccccc1F (centres undefined)	2	/	/	-1.0	/
O=C(Nc1ccc(Cl)cc1)N1CCC(c2nc(-c3cccs3)no2)CC1	-3	-3	8%	2.6	-25
COc1ccc(S(=O)(=O)NCC(c2ccc3c(c2)OCO3)N2CCOCC2)cc1 (centres undefined)	-12	/	/	-2.9	/
CCN(CC)c1ccc(/C=C(\C#N)C(=O)c2ccc(Br)cc2)cc1	0	-30	-2%	4.5	-17
COc1ccc(CNc2cc(C)nc3ccc(OC)cc23)cc1	0	/	/	0.5	/
Cc1ccc(Cl)cc1N1CCN(C(=O)Cc2csc(Nc3nc(=S)[nH]c4ccccc34)n2)CC1	15	-17	4%	-17	/

All compounds of this part, from the first entry:
SMILES	Mtb bLac sens	Arbovirus inh	Mtb H37Rv	RecA intein inh	YopH inh	others
CN(C(=O)Cn1cc(C(F)(F)F)ccc1=O)c1c(N)n(Cc2ccccc2)c(=O)[nH]c1=O	-5	/	/	-1.3	/
CC(SCc1ccccc1)C(=O)Nc1ccccc1F (centres undefined)	2	/	/	-1.0	/
O=C(Nc1ccc(Cl)cc1)N1CCC(c2nc(-c3cccs3)no2)CC1	-3	-3	8%	2.6	-25
COc1ccc(S(=O)(=O)NCC(c2ccc3c(c2)OCO3)N2CCOCC2)cc1 (centres undefined)	-12	/	/	-2.9	/
CCN(CC)c1ccc(/C=C(\C#N)C(=O)c2ccc(Br)cc2)cc1	0	-30	-2%	4.5	-17
COc1ccc(CNc2cc(C)nc3ccc(OC)cc23)cc1	0	/	/	0.5	/
Cc1ccc(Cl)cc1N1CCN(C(=O)Cc2csc(Nc3nc(=S)[nH]c4ccccc34)n2)CC1	15	-17	4%	-17	/
Cc1ccc(C)c(OCC(=O)NNC(=O)CSC(=S)N2CCCC2)c1	2	/	/	-1.2	/
Clc1ccccc1-c1nn2c(Cn3cnc4ccccc43)nnc2s1	-2	-15	/	-0.8	18
COc1cccc(-c2nc(N3CCCC3)c3ccccc3n2)c1O	1	/	2%	3.9	/
O=C(NCc1ccco1)c1c(F)c(F)c(F)c(C(=O)NCc2ccco2)c1F	0	6	-1%	4.0	/
CC1CN(C(=O)N2c3ccccc3Sc3ccccc32)CC(C)O1 (centres undefined)	-7	7	6%	1.7	-11
Cc1cc(C(=O)CC#N)c(C)n1CC(F)(F)F	-9	9	-3%	-1.4	-42
Cc1ccc(NC(=O)c2cc(S(=O)(=O)N(C)C)ccc2N2CCCC2)cc1S(=O)(=O)N(C)C	-3	/	/	2.4	/
Cc1nn(CC#N)c(=O)n1-c1ccc(Cl)cc1	-12	7	2%	-2.8	/
N#CCC(=O)Nc1ccc(C(=O)Nc2cccc(S(N)(=O)=O)c2)cc1	3	/	-5%	4.3	/
c1ccc2c(c1)CSc1ccccc1C2C1=NCCN1 (centres undefined)	-6	-1	/	-1.8	-11
Cc1ccc(S(=O)(=O)N2CCN(S(=O)(=O)N3CCCCCC3)CC2)cc1	0	-5	7%	-2.0	/
C=CCn1c(NCc2ccc(OC)cc2O)nc2ccccc21	2	/	/	3.0	/
CCOC(=O)C1CCCN(C2CC(=O)N(c3cccc(C(F)(F)F)c3)C2=O)C1 (centres undefined)	-2	2	3%	1.2	2
C/C(=N\NC(=O)CNC(=O)c1ccco1)c1ccc(Br)cc1	4	/	/	7.1	/
CCn1cc(C2=NOC(C(=O)Nc3c(C)nn(Cc4ccc(F)cc4)c3C)C2)c(C)n1 (centres undefined)	/	3	5%	0.7	-37	Arbovirus inh repeat=7
O=C(NCc1ccc2c(c1)OCO2)c1cc(=O)[nH]c2ccccc12	-1	/	12%	1.0	/
O=C1CC(c2ccc(F)cc2)Cc2nc(NCC3CCCO3)ncc21 (centres undefined)	7	5	-8%	0.2	-3
NC(=O)c1cc([N+](=O)[O-])ccc1NCCc1ccccc1	4	/	/	1.0	/

(cont.)
SMILES	Mtb bLac sens	Arbovirus inh	Mtb H37Rv	RecA intein inh	YopH inh	others
CCOC(=O)c1cc2c(nc1C)-c1cc(Cl)cc(Cl)c1OC2O (centres undefined)	-3	19	8%	-11	/
CCCNc1nc2c(c(=O)[nH]c(=O)n2C)n1Cc1ccc(F)cc1	-1	-3	0%	1.3	60*	Arbovirus inh repeat=-3
CC1(C(=O)O)Cc2ccccc2C(=O)O1 (centres undefined)	-5	3	-10%	-1.5	-18
Cc1cc(N=Nc2ccc3ccccc3c2)ccc1O	87	/	/	-0.4	/
C=C(C)CN(CC)C(=O)CSc1nc(O)cc(=O)n1C1CCCC1	-6	30*	0%	12	/
O=C(NCCN1CCOCC1)Nc1ccccc1	-9	5	/	/	-37
C=CCNC(=O)c1ccc2c3n(nc2c1)-c1ccccc1CO3	11	/	-9%	-2.3	/
OCCCNc1nc(-c2ccccc2)c2cc(Br)ccc2n1	4	/	/	-47	/
CC1CN(C(=S)Nc2ccc(Cl)cc2)CC(C)O1 (centres undefined)	-11	/	/	-0.9	/
Cc1nn(-c2cccc(C(F)(F)F)c2)c(Cl)c1/C=N/Nc1cccc(C(=O)O)c1	6	26	-6%	-1.3	-9
CNC(=O)Nc1ccc(Cl)cc1	0	5	-7%	1.1	26
CN1CCN(C(=O)c2ccc(-c3ccccc3)cc2)CC1	-4	/	/	0.9	/
COc1ccccc1CNC(=O)CSc1ccccc1	-7	-1	3%	-1.4	/
Nn1c(Nc2ccccc2)nc2sc3c(c2c1=O)CCCC3	1	-3	-2%	-6.3	/
COc1ccc(C(=O)N/N=C/c2cn[nH]c2-c2ccc(OC)cc2OC)cc1	-3	-6	-8%	-0.6	-28
CC(=O)c1c(NCCc2ccccc2)cc(C)oc1=O	-11	1	0%	-1.7	3
CC1CN(C(=O)CSc2ncnc3sccc23)CC(C)O1 (centres undefined)	-7	-2	-1%	0.2	-21
COC(=O)Nc1ccc(N2CCOCC2)c(S(=O)(=O)N2CCOCC2)c1	0	/	/	0.0	/
Cc1cc(C)n2nc(SCc3nnc(SCCCCl)o3)nc2n1	-1	7	-2%	0.5	-56
CCN(CC)CCCn1c(=S)[nH]c2ccc(Cl)cc2c1=O	?	12	-2%	-0.5	-7
COc1cc(Cc2nc3ccc(S(=O)(=O)N4CCOCC4)cc3[nH]2)cc(OC)c1OC	-3	-8	-1%	-1.5	1
Nc1ccc2oc3ncccc3c(=O)c2c1	1	1	4%	0.2	1
CCCc1cc(=O)c2ccc(OC/C(C)=N/O)cc2o1	-5	/	-4%	6.7	/
CCOc1ccc(OCCC(=O)OCC(=O)Nc2cc(OCC)c(N3CCOCC3)cc2OCC)cc1	3	/	/	0.9	/
CCN(Cc1ccccc1)C(=O)C1CCN(Cc2ccc(SC)cc2)CC1	0	-3	-10%	-1.6	/

Continued:
SMILES	Mtb bLac sens	Arbovirus inh	Mtb H37Rv	RecA intein inh	YopH inh	others
CC1CCN(S(=O)(=O)c2ccc(NC(=O)Cc3ccc(S(=O)(=O)N4CCOCC4)s3)cc2)CC1	-6	/	/	0.0	/
COc1ccc(Cn2c(CCC(=O)Nc3ccc(C)cc3)nc3cccnc32)cc1	-2	5	-4%	-11	-36
O=C(NCc1ccccc1)C(c1ccco1)N(C(=O)c1ccccn1)c1ccccc1 (centres undefined)	-2	/	/	-2.9	/
CCOc1nc(Nc2ccc(OC)cc2OC)nc(OCC)n1	10	/	/	1.7	/
CC(C)=C(NC(=O)c1ccccc1Br)C(=O)NCCc1nc2ccccc2[nH]1	-9	/	-4%	-5.4	/
COc1ccccc1NC(=O)C(C)NS(=O)(=O)c1ccc(F)cc1 (centres undefined)	-8	0	-11%	0.3	-8
CCc1c(C)c2ccc(OCC(=O)NCC3CCC(C(=O)O)CC3)c(C)c2oc1=O (centres undefined)	-5	/	/	-1.5	/
CCn1c(CNc2nc(-c3ccccc3)cs2)nnc1SCC(=O)NCc1ccco1	/	0	-11%	1.1	-41
CCOC(=O)N1CCN(C(=O)CCS(=O)(=O)c2cc3c(cc2Cl)NC(=O)CO3)CC1	1	/	/	-0.7	/
C[C@]12CCC(=O)C=C1CCC1C2CC[C@@]2(C)C1CC[C@@]2(O)CC#N (some centres undefined)	3	0	1%	-0.4	-10
O=C1CCc2nc3ccccc3c(=O)n2N1	-8	-1	-13%	5.7	-9
c1ccc(-c2nc3c([nH]2)CCc2nonc2-3)cc1	-2	0	1%	-0.2	/
CC(=O)Nc1ccc(S(=O)(=O)N2CCN(c3ccc([N+](=O)[O-])cc3)CC2)cc1	-2	/	/	0.0	/
CCc1c(C)sc(NC(=O)/C=C/c2ccc3c(c2)OCO3)c1C(=O)OC	48	-31	18%	-6.3	-17
COc1ccccc1NC(=O)CS(=O)(=O)c1cn(CC(=O)N2CCCC2)c2ccccc12	10	/	/	2.8	/
COc1ccc(/C=N/Nc2nc3ccccc3c(=O)n2-c2ccccc2)cc1OC	4	-17	11%	-0.8	-23
O=C(CC(Nc1ccccc1)c1ccc(F)cc1)c1ccccc1 (centres undefined)	70	11	65%	4.1	-23
O=C(COC(=O)C1CC(=O)N(Cc2ccccc2)C1)Nc1ccc2c(c1)OCO2 (centres undefined)	23	6	-5%	-0.9	-47
COc1ccccc1-c1nnc(SCC(=O)N2CCCCC2)o1	6	/	/	-4.8	/
O=C(O)COc1ccccc1C(Nc1ccccn1)c1cc(Cl)c2cccnc2c1O (centres undefined)	11	5	3%	18	-57
COc1ccc([N+](=O)[O-])cc1N(CC(=O)N1CCOCC1)S(C)(=O)=O	-1	-1	1%	-11	/
Cc1cc(Cl)c(OCCCN(C)C)c(Br)c1	-5	-10	0%	-1.0	-21
O=C(CCNS(=O)(=O)c1ccccc1)N1CCN(C(c2ccccc2)c2ccccc2)CC1	14	/	/	10	/
O=C(NCc1ccc(Cl)cc1)c1ccc(-c2ccccc2C(F)(F)F)o1	3	6	-3%	4.7	-28
COc1cccc(CNC(=O)CN2C(=O)COc3ccc(S(=O)(=O)N4CCC(C)CC4)cc32)c1	2	/	/	-1.3	/

Continued.
SMILES	Mtb bLac sens	Arbovirus inh	Mtb H37Rv	RecA intein inh	YopH inh	others
CC(C)(CNc1ccc(C(F)(F)F)cc1[N+](=O)[O-])N1CCOCC1	1	/	/	2.7	/
COc1ccc(NC(=O)C(=O)NNC(=O)c2cccs2)cc1	82	-11	52%	-0.7	-14
Cc1ccc(S(=O)(=O)N(C)C)cc1NC(=O)CN1C(=O)NC2(CCCCCCC2)C1=O	-2	/	/	2.2	/
Cc1[nH]n(-c2cccc(Cl)c2)c(=O)c1C=NCc1ccco1	7	-2	-3%	1.4	/
COc1ccc(CNC(=O)CN2C(=O)NC(C)(c3cccc4ccccc34)C2=O)cc1OC (centres undefined)	-5	/	/	-0.8	/
COc1ccc(CNC(=O)Cn2cccc2C(=O)c2ccccc2C)cc1	10	/	/	-0.6	/
Cc1ccc(OCC(=O)Nc2ccccc2F)cc1	90	/	/	2.3	/
COc1cc(OC)c(C(=O)OCC(=O)NC2CCCC2)cc1OC	2	/	/	-0.7	/
CC(Cc1ccccc1)NC(=O)c1ccc([N+](=O)[O-])cc1 (centres undefined)	10	4	1%	2.6	-30
CCC1SC(N)=NC1=O (centres undefined)	-12	-3	3%	0.8	-40
CC1(C)CC(=O)C(C2C3=C(CC(C)(C)CC3=O)Oc3ccccc32)=C(O)C1 (centres undefined)	-9	10	-7%	-1.8	-19
CCN(c1ccccc1)S(=O)(=O)c1ccc(Cl)c(NC(=O)CSc2n[nH]c(N)n2)c1	12	-9	5%	5.2	-19
CCC1N=C(SC)NC(C)=C1C(=O)c1ccccc1 (centres undefined)	2	-12	4%	4.7	/
COc1ccc2nc(NC(=O)CCc3cc(OC)c(OC)c(OC)c3)sc2c1	52	-1	35%	0.9	/
CC1=C(C#N)C(NC(=O)c2ccccc2Cl)(C(F)(F)F)C(=O)N1 (centres undefined)	0	-5	0%	-0.2	-19
C=CCc1ccc(OCCCCN2CC(C)CC(C)C2)c(OC)c1 (centres undefined)	-6	5	-3%	-1.4	/
CC(=O)C(C(c1ccccc1)c1c[nH]c2ccccc12)[N+](=O)[O-] (centres undefined)	-3	/	/	5.0	/
CCOC(=O)C(CC)Sc1cc(C)nc2ccc(OC)cc12 (centres undefined)	-6	9	1%	1.9	/
Cn1c(=O)cc(SCC(=O)N2CCN(C(=O)c3ccco3)CC2)c2ccccc21	9	-7	0%	3.4	6
O=C(CC1Sc2ncnn2C1=O)Nc1ccc(Br)cc1 (centres undefined)	11	9	0%	13	-24	Arbovirus inh repeat=7
O=S(=O)(Nc1ccc(S(=O)(=O)N2CCCCC2)cc1)c1cccs1	6	7	-1%	2.5	-3
